Screens as filed in PubChem BioAssay.
Mtb MenB inh: M. tuberculosis MenB inhibitors, primary screen, biochemical, absorbance. inhibition, %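 (about 12 µg/mL by stock and volumes)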. MenB enzyme assay, absorbance read-out; some hits fall short of the stated cut. 100,000 compounds, 0.43% hits;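 active means mean of two replicates above 30%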;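 further: 0% = no compound and 100% = wells with inactive enzyme; the first replicate is given; strong numbers were not always called active; inactives centre near -10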
Target sequence (P9WNP5 whole entry, looked up): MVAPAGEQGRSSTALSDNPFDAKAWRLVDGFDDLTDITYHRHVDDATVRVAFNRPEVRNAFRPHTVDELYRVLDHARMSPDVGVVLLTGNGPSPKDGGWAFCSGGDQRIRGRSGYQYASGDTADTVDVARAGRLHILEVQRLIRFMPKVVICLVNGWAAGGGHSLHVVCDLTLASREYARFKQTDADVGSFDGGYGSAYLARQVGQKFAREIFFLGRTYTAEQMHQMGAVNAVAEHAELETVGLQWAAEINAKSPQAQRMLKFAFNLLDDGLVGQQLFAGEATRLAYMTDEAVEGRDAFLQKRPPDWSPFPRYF
MbtI inh: MbtI salicylate synthase inhibitors, primary screen, biochemical, fluorescence intensity; P9WFX0; purified MbtI enzyme, fluorescence intensity read-out; inhibition, %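 (about 17 µg/mL by stock and volumes)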; 100,000 compounds, 0.89% hits;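 active means above 50% in both replicates, above 80% if mildly self-fluorescent; inactive means the rest, strongly fluorescent compounds included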;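 further: 0% = mean of negative and 100% = mean of positive controls; one replicate is shown; some compounds called inactive have numbers as strong as hits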
Target sequence (P9WFX0 whole entry, looked up): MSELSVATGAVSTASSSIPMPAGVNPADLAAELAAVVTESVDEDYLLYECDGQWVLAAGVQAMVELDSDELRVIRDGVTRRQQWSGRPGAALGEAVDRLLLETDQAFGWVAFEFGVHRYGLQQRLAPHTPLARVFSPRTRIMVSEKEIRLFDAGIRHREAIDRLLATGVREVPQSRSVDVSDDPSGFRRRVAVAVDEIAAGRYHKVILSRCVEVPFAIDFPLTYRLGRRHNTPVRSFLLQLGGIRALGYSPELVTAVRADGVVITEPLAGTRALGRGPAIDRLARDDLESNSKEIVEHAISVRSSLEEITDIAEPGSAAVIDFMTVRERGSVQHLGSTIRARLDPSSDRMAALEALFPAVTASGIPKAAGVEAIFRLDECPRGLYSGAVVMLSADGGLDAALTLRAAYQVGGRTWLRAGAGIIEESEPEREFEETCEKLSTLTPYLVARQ
PV pol inh: poliovirus RdRp elongation inhibitors, primary screen, biochemical, fluorescence polarization, total intensity. Genome polyprotein (Poliovirus type 1 (strain Mahoney)), P03300. poliovirus polymerase elongation; stronger effect = lower value. % elongation, % (compound at 16.7 µg/mL). 150,000 compounds, 0.66% hits. AID 588519, 2011; in the data active means % elongation below about 90%; further: some results filed as inactive read as strong as hits
PV pol inh intensity: further read-out of PV pol inh, marked with its call; % elongation; measured here: total intensity read-out; formula for this scale not given here;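 total fluorescence in place of polarization; lower means less elongation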
* hit, by the source's call; i = inactive; x = no result given.

SMILES	Mtb MenB inh	MbtI inh	PV pol inh	PV pol inh intensity
Cc1sc2ncnc(N(C)C)c2c1C	2	x	101	100
O=C(COc1ncnc2ccccc12)NC(c1ccccc1)c1ccccc1	x	-2	101	105
Nc1cc(OC(=O)c2ccccc2)nn1S(=O)(=O)c1ccccc1	-3	-8	101	106
CC1CCCCC1NC(=O)COC(=O)c1nc(Cl)ccc1Cl (configuration not stated)	-2	0	100	106
O=C(CSCc1nc2scc(-c3cccs3)c2c(=O)[nH]1)Nc1nnc(C2CC2)s1	3	16	140	153
Cc1c(/C=N/n2cnnc2)[nH]n(-c2ccccc2)c1=O	-13	x	101	102
O=c1cc(O)c2ccccc2o1	-178	44	98	103
CC(C)c1nc2ccccn2c1NC1CCCCC1	-42	0	105	100
N#Cc1nc2c(nc1C#N)-c1ccccc1C2=O	-19	3	95	92
Cc1cc(=O)n2[nH]c(C(=O)NCc3ccccc3)nc2n1	-7	-4	101	103
COc1ccc(N2CC(=O)N(/N=C/c3ccc(N(C)C)cc3)C2=S)cc1	-50	x	103	107
Cc1ccccc1-c1cc(C(=O)O)c2c(-c3ccccc3)[nH]nc2n1	-23	8	102	103
CN1C(=O)CC2(CC(=O)N(Cc3ccccc3)C2)C1=O (configuration not stated)	0	1	98	101
O=C(Nc1ccccn1)c1cc2c(s1)CCCC2	-2	2	99	102
CC1=C(C#N)C(c2ccccc2)C2=C(CC(c3ccccc3)CC2=O)N1 (configuration not stated)	-5	i	102	102
COC(=O)c1ccc(COC(=O)C2=NNC(=O)CC2)cc1	-14	-6	107	111
COC(=O)c1sc(C(C)(C)C)cc1CS(=O)(=O)c1ccccn1	-6	-6	104	112
CN(Cc1nccn1C)c1ncnc2sc3c(c12)CCCC3	-8	4	102	101
CN(C)C(=O)c1cc(Br)ccc1Cl	1	-13	101	106
CC1(C)CC2CC(C)(CN2C(=O)CSc2nc3ccccc3o2)C1 (configuration not stated)	-6	-2	101	106

Additional compounds:
SMILES	Mtb MenB inh	MbtI inh	PV pol inh	PV pol inh intensity
CC(Sc1ncnc2sccc12)C(=O)Nc1ccc(S(N)(=O)=O)cc1 (configuration not stated)	-12	4	110	111
O=C1CC2(CCCC2)C(=O)N1c1ccc(I)cc1	-3	-14	102	105
CC(C)CC1C2CN(Cc3ccccc3)CC=C2C(C#N)=C(N)C1(C#N)C#N (configuration not stated)	-196	89	78	197
O=C1SCCc2c1n(Cc1ccccc1)c1ccccc21	-43	-9	106	102
Cc1noc(C)c1COc1ccc(/C=N/NC(=S)NC(C)(C)C)cc1	-43	0	103	103
Cc1ccc(N2C(=O)CC(N3CCN(c4cccc(C)c4C)CC3)C2=O)cc1Cl (configuration not stated)	11	14	105	98
COC(=O)c1ccc(/C=N/NC(N)=S)n1-c1ccc(F)cc1	-40	10	102	96
CCOC(=O)CSc1nnc(CNC(=O)c2cccs2)n1C	-10	4	101	95
COc1ccc(OC)c(N=c2oc3cc(O)ccc3cc2C(=O)Nc2ccccn2)c1	-75	5	88	104
Fc1ccc(-c2csc(=Nc3ccccc3)n2Cc2cccnc2)cc1	1	x	102	110
COc1ccc(/C=c2\sc3ncnn3c2=O)cc1	-27	-10	89*	89*
CCCn1c(N)c(C(=O)COC(=O)c2cccnc2SC)c(=O)[nH]c1=O	-21	-11	106	117
Cn1nnnc1-c1ccco1	9	x	103	96
CC1(C)CC(CC(N)=O)(c2ccccc2)CCO1 (configuration not stated)	9	-4	103	104
Cc1cccc(OP(N)(N)=O)c1C	5	-2	104	102
CN1c2ccccc2C(=O)C(=C2SCCCS2)S1(=O)=O	-78	-5	102	105
C(=N\N=C\c1cccnc1)/c1cccnc1	10	19	98	101
NC(=O)NC(=O)CSc1nnc(-c2ccccc2)n1Cc1ccc2c(c1)OCO2	0	-8	99	102
CCOc1ccc(NC(=O)CN(C)c2nnnn2-c2ccccc2)cc1OCC	-27	3	x	x
CCc1cc2c(NCCCN3CCOCC3)nc(C)nc2s1	-56	4	103	102

Continuation:
SMILES	Mtb MenB inh	MbtI inh	PV pol inh	PV pol inh intensity
Cc1n[nH]c(=O)c2c(NC(=O)COC(=O)C3(c4ccc(Cl)cc4)CCC3)oc(C)c12	-16	-9	101	106
CNC(=O)c1sc2nc(-c3ccccc3)cn2c1C	-8	11	100	98
CCOC(=O)c1c(-c2ccccc2)oc2cc(Br)c(OCC(N)=O)cc12	-18	-96	99	103
Cc1cccn2c(=O)c3cc(C(=O)N4CCCCC4)sc3nc12	-24	4	98	92
O=C(O)C(C(=O)O)C12OC3C4C5CC(C6C5C3C61)C42 (configuration not stated)	-8	-4	101	104
CN1C(=O)S/C(=C\C(=O)O)C1=O	-19	13	104	106
Cc1cc(=O)oc2cc(OCC(=O)OC(C)C(=O)Nc3ccc(S(N)(=O)=O)cc3)ccc12 (configuration not stated)	5	109	101	104
CC(c1ccc(S(N)(=O)=O)cc1)N(C)c1ncnc2sccc12 (configuration not stated)	-8	0	114	117
CCS(=O)(=O)CCSc1nc(-c2ccccc2)cc(-c2ccccc2)c1C#N	-54	55	100	102
O=C(Nc1cccc(Br)c1)c1ccc(OC2CSC2)cc1	-22	x	98	97
C=CCc1c(C)nc(OCC(=O)OCC)c(C#N)c1C	-3	-4	104	101
O=C(O)c1oc2ccccc2c1CSc1ccccn1	1	x	104	105
CSc1ccc(CNC2CN3CCC2CC3)cc1 (configuration not stated)	-10	-10	100	102
CC1CN(C(=O)c2ccc(Br)o2)CC(C)O1 (configuration not stated)	-11	-2	101	101
CC(C)NC(=O)Cn1c(=O)cnc2ccccc21	-2	-11	106	112
O=C1CC2(CCCC2)C(=O)N1	13	9	106	107
CCOC(=O)C1CCN(C(=O)c2nn(-c3ccccc3)nc2C)CC1	-15	-6	104	104
O=C(NC1CCCCC1)c1noc2c1CCCCC2	-12	16	98	100
CC1CCc2c(sc(NC(=S)NC(=O)c3ccn(C)n3)c2C(N)=O)C1 (configuration not stated)	-15	-14	102	100
C=CCn1c(SCC(=O)/C(C#N)=C2\Sc3ccccc3N2C)nc2ccccc2c1=O	0	-2	115	119

Later entries.
SMILES	Mtb MenB inh	MbtI inh	PV pol inh	PV pol inh intensity
CC(C)c1cc(C(=O)O)n(C)n1	0	-7	101	100
Cc1c(OCc2ccccc2)ccc2c(C(F)(F)F)cc(=O)oc12	-39	2	102	105
CSc1ncccc1C(=O)OCC(=O)c1ccccc1	-28	1	100	100
COc1cccc2sc(=NC(=O)CC34CC5CC(CC(C5)C3)C4)n(C)c12	-30	3	104	97
CCN(c1ccccc1)S(=O)(=O)c1c[nH]c(C(=O)OC)c1	-11	-25	101	100
COC(=O)CNS(=O)(=O)c1ccc(F)cc1	-11	0	98	100
O=C(OC1CCCC1)c1ccccc1C(F)(F)F	x	-9	102	93
CC(C)N1C(=O)/C(=C\c2ccc(C(F)(F)F)cc2)N(C)C1=S	-19	7	104	97
C=CCn1c(=N)n(CCO)c2ccccc21	-12	-6	102	106
CN(Cc1ccccc1NCC(=O)Nc1ccc2c(c1)OCCO2)C1CCCCC1	-9	-17	102	110
CN1N=C(C(=O)Nc2nc(-c3ccccc3Cl)cs2)CCC1=O	-40	-39	91	87
CCC(C)N=Cc1c(O)n(-c2ccccc2)c(=O)[nH]c1=O (configuration not stated)	-3	102*	96	98
O=C(NN1C(=O)CCC1=O)C(O)c1ccccc1 (configuration not stated)	4	-10	101	102
COc1ccccc1C(=O)Nc1ccccn1	-7	x	103	108
O=C(Nc1ccccc1NC(=O)c1cccs1)c1ccc(C(F)(F)F)cc1	-14	x	109	116
CCC1(Cc2ccccc2)NC(=O)c2ccccc2O1 (configuration not stated)	9	3	101	104
NNC(=O)CCc1nc2ccccc2[nH]1	-13	-7	103	104
CCC(=O)c1ccccc1OCC(=O)Nc1c(C)cccc1C	x	-3	103	106
CCOC(=O)c1ccc(NC)c(N)c1	-12	-153	102	99
CC1CCc2c(sc(NC(=O)C3CC(=O)N(Cc4ccco4)C3)c2C(N)=O)C1 (configuration not stated)	-8	5	105	113

Additional compounds follow:
SMILES	Mtb MenB inh	MbtI inh	PV pol inh	PV pol inh intensity
CC(C)(C)c1ccc(NC(=O)N2CCN(CCN3CCOCC3)CC2)cc1	-26	12	107	105
CCOC(=O)N1CCN(C(=O)Cn2ncc3ccccc32)CC1	-12	0	105	107
COc1cc2c(cc1OC)CN(C(=O)C1CCCN1S(=O)(=O)c1ccc(F)cc1)CC2 (configuration not stated)	-21	-2	104	105
CC(=O)Nc1ccc(C(=O)CSc2nc3ccccc3n2CC(=O)N2CCCC2)cc1	-11	9	102	101
CCOC(=O)C1=C(c2cccs2)OC(N)=C(C#N)C1c1cccnc1 (configuration not stated)	-32	2	97	104
CC(=O)Nc1ccc(C(=O)COc2ncnc3sccc23)cc1	8	19	110	112
CC(C)(C)N1COc2ccc3c4c(c(=O)oc3c2C1)CCCC4	-3	126	102	102
CCNS(=O)(=O)c1cc(C)ccc1-n1cnnn1	-10	-2	98	102
O=C(NCCN1CCN(c2cccc(Cl)c2)CC1)c1nnc(-c2ccc(CN3CCc4ccccc4C3)cc2)o1	2	4	100	101
O=C(NCc1ccco1)c1ccc2c(c1)NC(=O)C1CCCN21 (configuration not stated)	-20	17	107	124
Cc1nnc(SCCCC(=O)c2ccc(C(C)(C)C)cc2)s1	-15	-5	106	104
CC(C)CN(C(=O)c1cccnc1)c1nnc(Cn2nnc3ccccc32)s1	-36	-6	102	105
CCN(CC)CCN=Cc1c(O)[nH]c(=O)[nH]c1=O	-92	4	100	103
c1coc(-c2nc3ccccc3s2)c1	-40	101	107	112
CCN(CC)/C(=N/S(=O)(=O)c1ccc(Cl)cc1)c1ccccc1	-32	6	103	100
CC(C)NC(=O)c1ccc(F)cc1	-3	x	109	112

Filtered by structure: the compounds so far containing an aryl thioether with sulfur outside any ring (twelve)
SMILES	Mtb MenB inh	MbtI inh	PV pol inh	PV pol inh intensity
CC1(C)CC2CC(C)(CN2C(=O)CSc2nc3ccccc3o2)C1 (configuration not stated)	-6	-2	101	106
CC(Sc1ncnc2sccc12)C(=O)Nc1ccc(S(N)(=O)=O)cc1 (configuration not stated)	-12	4	110	111
CCOC(=O)CSc1nnc(CNC(=O)c2cccs2)n1C	-10	4	101	95
CCCn1c(N)c(C(=O)COC(=O)c2cccnc2SC)c(=O)[nH]c1=O	-21	-11	106	117
NC(=O)NC(=O)CSc1nnc(-c2ccccc2)n1Cc1ccc2c(c1)OCO2	0	-8	99	102
CCS(=O)(=O)CCSc1nc(-c2ccccc2)cc(-c2ccccc2)c1C#N	-54	55	100	102
O=C(O)c1oc2ccccc2c1CSc1ccccn1	1	x	104	105
CSc1ccc(CNC2CN3CCC2CC3)cc1 (configuration not stated)	-10	-10	100	102
C=CCn1c(SCC(=O)/C(C#N)=C2\Sc3ccccc3N2C)nc2ccccc2c1=O	0	-2	115	119
CSc1ncccc1C(=O)OCC(=O)c1ccccc1	-28	1	100	100
CC(=O)Nc1ccc(C(=O)CSc2nc3ccccc3n2CC(=O)N2CCCC2)cc1	-11	9	102	101
Cc1nnc(SCCCC(=O)c2ccc(C(C)(C)C)cc2)s1	-15	-5	106	104
